Env fusion inh – HIV envelope-mediated fusion inhibition; inhibition, % at 12.3 µM; HeLa-JRFL Env/CEM21 cell fusion, luciferase; 1.1% of 360,000 active; AID 651610;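 active = mean replicate inhibition score of at least 50 and every replicate individually at or above 50; inconclusive = only one of the two criteria met; inactive = mean below 50 and not all replicates reaching 50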;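 also: 0% = plate neutral controls and 100% = maraviroc near 300 nM; one replicate is shown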
UUG fidelity – alters start codon recognition fidelity in yeast; S. cerevisiae UUG-firefly luciferase reporter, luminescence/redox ratio; activity score, % at 18.7 µM; 0.13% of 350,000 active;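 active = replicate mean at a twofold rise or more, about +100% in these data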;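 also: firefly luciferase made from a UUG start codon reports start codon fidelity; reporter light over untreated wells divided by growth signal over untreated wells; some hits fall short of that in this replicate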
Numbers without * were called inactive; ? = inconclusive; [ ] = another dose, or the depositor's remark. These rows are one share of the data, so the mix of outcomes need not match the whole.

Env fusion inh	UUG fidelity	SMILES
15.0[16.7 µM]	-5.6	CCC(=O)N(C)C[C@H]1Oc2ncc(-c3ccc(C#N)cc3)cc2C(=O)N([C@@H](C)CO)C[C@H]1C
9.4[16.7 µM]	20.2	CO[C@@H]1CN(C)C(=O)c2cc(NC(=O)Nc3ccccc3Cl)ccc2OC[C@@H](C)N(C(C)=O)C[C@H]1C
-0.1	-4.8	Cc1ccc(CNC(=O)COC(=O)c2ccc(S(=O)(=O)N3CCCCCC3)cc2)cc1
0.2[16.7 µM]	-12.6	CCCc1cn(CC[C@H]2CC[C@@H](NC(=O)C3CC3)[C@H](CO)O2)nn1
-19.0[16.7 µM]	31.7	CO[C@H]1CN(C)C(=O)c2cc(NS(=O)(=O)c3ccccc3)ccc2OC[C@H](C)N(C(=O)NC(C)C)C[C@@H]1C
12.0[16.7 µM]	2.0	COc1ccc(-c2cnc3c(c2)C(=O)N([C@H](C)CO)C[C@@H](C)[C@H](CN(C)C(=O)CN(C)C)O3)cc1
21.4[16.7 µM]	12.1	C[C@H]1CN([C@@H](C)CO)C(=O)c2cc(C#CC3CC3)cnc2O[C@H]1CN(C)S(=O)(=O)c1cccc(F)c1
?	13.2	COc1ccc(S(=O)(=O)Nc2ccc3c(c2)C(=O)N([C@@H](C)CO)C[C@H](C)[C@@H](CN(C)Cc2ccc(Cl)c(Cl)c2)OCCCC[C@@H](C)O3)cc1
-17.0[16.7 µM]	3.9	C[C@@H]1CN([C@@H](C)CO)C(=O)c2cc(-c3ccc(C(=O)N(C)C)cc3)cnc2O[C@@H]1CN(C)C
75.3*[16.7 µM]	-6.7	COc1ccc(NC(=O)Nc2ccc3c(c2)CC(=O)N([C@@H](C)CO)C[C@H](C)[C@H](CN(C)S(=O)(=O)c2cccs2)O3)cc1
2.5[16.7 µM]	-10.5	C[C@H](CO)N1C[C@H](C)[C@H](CN(C)C(=O)CN(C)C)Oc2cc(C3=CCCC3)ccc2S1(=O)=O
-24.3[16.7 µM]	-5.8	CC(C)NC(=O)Nc1ccc2c(c1)C(=O)N([C@@H](C)CO)C[C@H](C)[C@@H](CN(C)S(=O)(=O)c1ccccc1)OCCCC[C@@H](C)O2
-11.0[16.7 µM]	22.9	CO[C@@H]1CN(C)C(=O)c2ccc(NC(=O)NC(C)C)cc2OC[C@H](C)NC[C@@H]1C
-17.0[16.7 µM]	-2.0	C[C@H]1CCCCO[C@H](CN(C)C(=O)NC2CCCCC2)[C@@H](C)CN([C@@H](C)CO)C(=O)c2cc(NS(=O)(=O)c3ccc(F)cc3)ccc2O1
11.3[16.7 µM]	-30.2	C[C@@H]1CN([C@H](C)CO)C(=O)c2cccc(NC(=O)c3ccncc3)c2O[C@H]1CN(C)Cc1ccc2c(c1)OCO2
1.4[16.7 µM]	7.0	COc1ccc(S(=O)(=O)Nc2ccc3c(c2)C(=O)N([C@H](C)CO)C[C@@H](C)[C@H](CN(C)S(=O)(=O)c2cccs2)O3)cc1
7.2[16.7 µM]	9.2	C[C@@H]1CCCCO[C@@H](CN(C)C(=O)Nc2ccc(F)cc2)[C@@H](C)CN([C@H](C)CO)C(=O)c2cc(N(C)C)ccc2O1
-11.3[16.7 µM]	-3.8	O=C(CCN1CCCCC1)NCC[C@H]1CC[C@@H](NC(=O)C2CCC2)[C@@H](CO)O1
1.8[16.7 µM]	2.3	C[C@H]1CN([C@@H](C)CO)C(=O)c2cc(C#CCN(C)C)cnc2O[C@H]1CN(C)S(=O)(=O)c1ccccc1
-3.1[16.7 µM]	9.5	COc1ccc(NC(=O)N(C)C[C@@H]2OCCCC[C@@H](C)Oc3ccc(NC(=O)CCCN(C)C)cc3C(=O)N([C@@H](C)CO)C[C@H]2C)cc1
15.5[16.7 µM]	2.9	CCCC#Cc1ccc2c(c1)O[C@H](CN(C)C(=O)C1CCC1)[C@@H](C)CN([C@@H](C)CO)S2(=O)=O
-0.1[16.7 µM]	8.8	C[C@H](CO)N1C[C@H](C)[C@@H](CN(C)Cc2ccc(Oc3ccccc3)cc2)Oc2ccc(NC(=O)Nc3ccccc3)cc2CC1=O
22.1[16.7 µM]	16.7	C[C@H]1CCCCO[C@@H](CN(C)C(=O)c2ccccc2)[C@@H](C)CN([C@@H](C)CO)C(=O)c2cc(NC(=O)CCC(F)(F)F)ccc2O1
11.4[16.7 µM]	18.0	CCCNC(=O)N(C)C[C@H]1Oc2cc(C#CCOC)ccc2S(=O)(=O)N([C@H](C)CO)C[C@H]1C
3.9[16.7 µM]	2.3	COCC#Cc1cnc2c(c1)C(=O)N([C@H](C)CO)C[C@H](C)[C@@H](CN(C)C(=O)Nc1ccccc1OC)O2
-6.8[16.7 µM]	0.2	C[C@H](CO)N1C[C@H](C)[C@@H](CN(C)Cc2ccc(F)cc2)Oc2ncc(-c3cncnc3)cc2C1=O
4.6[16.7 µM]	-10.3	COc1cccc(-c2cnc3c(c2)C(=O)N([C@@H](C)CO)C[C@H](C)[C@@H](CN(C)Cc2ccncc2)O3)c1
-2.3[16.7 µM]	18.0	Cc1noc(C)c1NC(=O)Nc1ccc2c(c1)CC(=O)N([C@H](C)CO)C[C@@H](C)[C@H](CN(C)S(=O)(=O)c1ccc(Cl)cc1)O2
3.4[16.7 µM]	-8.5	CN(Cc1ccccc1)CC(O)CC(O)c1ccccc1 (stereo not given)
-1.6[16.7 µM]	0.8	CN(C)CCCNC(=O)C[C@H]1C=C[C@@H](NS(=O)(=O)c2ccc(F)cc2)[C@@H](CO)O1

3 structures already listed, arranged by molar mass, smallest number first:
Env fusion inh	UUG fidelity	SMILES
2.5[16.7 µM]	-10.5	C[C@H](CO)N1C[C@H](C)[C@H](CN(C)C(=O)CN(C)C)Oc2cc(C3=CCCC3)ccc2S1(=O)=O
11.4[16.7 µM]	18.0	CCCNC(=O)N(C)C[C@H]1Oc2cc(C#CCOC)ccc2S(=O)(=O)N([C@H](C)CO)C[C@H]1C
-17.0[16.7 µM]	-2.0	C[C@H]1CCCCO[C@H](CN(C)C(=O)NC2CCCCC2)[C@@H](C)CN([C@@H](C)CO)C(=O)c2cc(NS(=O)(=O)c3ccc(F)cc3)ccc2O1

The main list resumes with the 3 entries that preceded the break.
Env fusion inh	UUG fidelity	SMILES
-2.3[16.7 µM]	18.0	Cc1noc(C)c1NC(=O)Nc1ccc2c(c1)CC(=O)N([C@H](C)CO)C[C@@H](C)[C@H](CN(C)S(=O)(=O)c1ccc(Cl)cc1)O2
3.4[16.7 µM]	-8.5	CN(Cc1ccccc1)CC(O)CC(O)c1ccccc1 (stereo not given)
-1.6[16.7 µM]	0.8	CN(C)CCCNC(=O)C[C@H]1C=C[C@@H](NS(=O)(=O)c2ccc(F)cc2)[C@@H](CO)O1
26.3[16.7 µM]	13.8	Cc1ccc(S(=O)(=O)Nc2cccc3c2O[C@@H](CN(C)Cc2ccc(C(=O)O)cc2)[C@H](C)CN([C@@H](C)CO)C3=O)cc1
5.2[16.7 µM]	10.8	C[C@H](CO)N1C[C@H](C)[C@H](CN(C)S(=O)(=O)c2cccs2)OCCCC[C@H](C)Oc2ccc(NC(=O)CCC(F)(F)F)cc2C1=O
-3.9[16.7 µM]	-3.2	COc1ccc(NC(=O)N(C)C[C@@H]2Oc3ccc(NS(=O)(=O)c4cccs4)cc3CC(=O)N([C@@H](C)CO)C[C@H]2C)cc1
10.0[16.7 µM]	14.3	C[C@@H]1CN([C@@H](C)CO)S(=O)(=O)c2ccc(Br)cc2O[C@@H]1CN(C)S(=O)(=O)c1ccccc1
-9.4[16.7 µM]	4.0	CC(C)C#Cc1cnc2c(c1)C(=O)N([C@@H](C)CO)C[C@@H](C)[C@H](CN(C)C(=O)Nc1ccc(F)cc1)O2
0.5[16.7 µM]	-4.3	N#C[C@@H]1[C@@H](c2ccc(-c3ccc(F)cc3)cc2)[C@@H](CO)N1S(=O)(=O)Cc1ccccc1
7.7[16.7 µM]	2.1	CCCC#Cc1cnc2c(c1)C(=O)N([C@@H](C)CO)C[C@H](C)[C@H](CN(C)C(=O)c1ccccc1)O2
18.9[16.7 µM]	3.5	Cc1noc(C)c1NC(=O)Nc1ccc2c(c1)CC(=O)N([C@H](C)CO)C[C@@H](C)[C@H](CN(C)S(=O)(=O)c1c(C)noc1C)O2
-3.2[16.7 µM]	-18.3	COc1ccc(CNC(=O)C[C@H]2C=C[C@@H](NC(=O)Nc3ccc4c(c3)OCO4)[C@H](CO)O2)cc1
7.7[16.7 µM]	-2.4	C[C@@H](O)C#Cc1cnc2c(c1)C(=O)N([C@@H](C)CO)C[C@H](C)[C@H](CN(C)C(=O)Cc1ccccn1)O2
89.6*[16.7 µM]	-1.8	COc1ccc([Si](C)(C)[C@@H]2[C@@H](CCO)O[C@]3(C(=O)N4c5c(cc(OC)cc53)C(C)=CC4(C)C)[C@H]2C)cc1
-7.6[16.7 µM]	-3.7	C[C@@H]1CN([C@H](C)CO)C(=O)c2cccc(NC(=O)Nc3ccc4c(c3)OCO4)c2O[C@@H]1CN(C)Cc1ccncc1
-2.0[16.7 µM]	3.3	C[C@@H]1CN([C@@H](C)CO)C(=O)c2cc(NS(=O)(=O)c3ccc(F)cc3)ccc2O[C@@H]1CN(C)Cc1ccc(Cl)c(Cl)c1
-7.2[16.7 µM]	-10.5	COCCNC(=O)C[C@@H]1C[C@H]2c3cc(NC(=O)COC)ccc3O[C@H]2[C@@H](CO)O1
11.8[16.7 µM]	2.2	C[C@H]1CCCCO[C@H](CN(C)C(=O)CCCN(C)C)[C@@H](C)CN([C@@H](C)CO)C(=O)c2cc(NC(=O)c3ccccc3)ccc2O1
-44.9[16.7 µM]	7.6	C[C@H]1CCCCO[C@H](CN(C)S(=O)(=O)c2ccc(F)cc2)[C@@H](C)CN([C@@H](C)CO)C(=O)c2cc(NC(=O)c3ccccc3)ccc2O1
10.3[16.7 µM]	-0.9	C[C@@H]1CN([C@@H](C)CO)C(=O)c2cc(NC(=O)Nc3cccc4ccccc34)ccc2O[C@@H]1CN(C)Cc1ccccc1
0.3[16.7 µM]	-12.6	O=C(C[C@@H]1CC[C@@H](NC(=O)c2ccccc2)[C@H](CO)O1)Nc1ccc(-c2ccccc2)cc1
-28.7[16.7 µM]	6.1	Cc1noc(C)c1NC(=O)Nc1ccc2c(c1)C(=O)N([C@H](C)CO)C[C@@H](C)[C@H](CN(C)C(=O)NC1CCCCC1)O2
-63.1[16.7 µM]	1.9	C[C@H](CO)N1C[C@H](C)[C@@H](CN(C)S(=O)(=O)c2ccccc2)OCCCC[C@H](C)Oc2ccc(NS(=O)(=O)c3ccccc3)cc2C1=O
4.0[16.7 µM]	-4.8	C[C@H]1CN([C@@H](C)CO)C(=O)Cc2cc(NS(=O)(=O)c3cn(C)cn3)ccc2O[C@@H]1CN(C)C(=O)Nc1ccc2c(c1)OCO2
8.3[16.7 µM]	-14.7	CCC(=O)N[C@H]1CC[C@H](CC(=O)NCc2ccccc2OC)O[C@@H]1CO
12.2[16.7 µM]	11.1	Cc1ccc(S(=O)(=O)N(C)C[C@@H]2Oc3ccc(NS(=O)(=O)c4ccc(F)cc4)cc3CC(=O)N([C@@H](C)CO)C[C@H]2C)cc1
15.6[16.7 µM]	-5.0	COc1ccc(NC(=O)Nc2ccc3c(c2)C(=O)N([C@H](C)CO)C[C@H](C)[C@H](CN(C)C(=O)Nc2cccc4ccccc24)O3)cc1
-28.9[16.7 µM]	-15.6	O=C(N[C@H]1CC[C@H](CCNC(=O)C2CCCC2)O[C@@H]1CO)c1ccncc1
4.5[16.7 µM]	-30.9	CNC[C@@H]1Oc2ccc(NS(C)(=O)=O)cc2C(=O)N([C@@H](C)CO)C[C@H]1C
-13.8[16.7 µM]	-3.6	CC(C)NC(=O)N(C)C[C@@H]1Oc2ccc(N(C)C)cc2C(=O)N([C@@H](C)CO)C[C@H]1C
-2.1[16.7 µM]	2.5	C[C@@H]1CN([C@H](C)CO)S(=O)(=O)c2ccc(-c3ccc(C(=O)N(C)C)cc3)cc2O[C@H]1CN(C)C(=O)Nc1ccccc1F
-1.8[16.7 µM]	3.1	CNC[C@H]1OCCCC[C@@H](C)Oc2ccc(NC(=O)Nc3ccc(OC)cc3)cc2C(=O)N([C@@H](C)CO)C[C@@H]1C
0.0[16.7 µM]	-10.1	O=C(C[C@@H]1C=C[C@H](NC(=O)c2ccncc2)[C@@H](CO)O1)Nc1ccc(-c2ccccc2)cc1
-5.5[16.7 µM]	-10.1	O=C(C[C@@H]1C=C[C@@H](NC(=O)c2ccc3c(c2)OCO3)[C@@H](CO)O1)NC1Cc2ccccc2C1
8.3[16.7 µM]	-4.1	CCC(=O)Nc1ccc2c(c1)OC[C@@H](C)N(C(=O)NC(C)C)C[C@H](C)[C@H](OC)CN(C)C2=O
49.9[16.7 µM]	-9.1	CCCC#Cc1ccc2c(c1)O[C@@H](CN(C)S(=O)(=O)c1cccc(OC)c1)[C@@H](C)CN([C@@H](C)CO)S2(=O)=O
-30.7[16.7 µM]	11.9	COc1ccc([Si](C)(C)[C@@H]2[C@@H](CC(=O)N(CCO)Cc3ccccc3)O[C@]3(C(=O)N(C)c4ccccc43)[C@H]2C)cc1
-5.4[16.7 µM]	4.5	Cc1noc(C)c1NC(=O)N(C)C[C@@H]1Oc2ncc(C#CC3CC3)cc2C(=O)N([C@H](C)CO)C[C@H]1C
-9.4[16.7 µM]	-5.0	CCCC(O)C#Cc1cnc2c(c1)C(=O)N([C@H](C)CO)C[C@H](C)[C@H](CN(C)Cc1cccc(C)c1)O2 (stereo not given in full)
-14.1[16.7 µM]	0.0	O=C(N[C@H]1CC[C@H](CCNC(=O)c2ccccc2F)O[C@H]1CO)c1ccc2c(c1)OCO2
-1.2[16.7 µM]	-12.0	C[C@H](CO)N1C[C@H](C)[C@@H](CN(C)C(=O)Nc2cccc3ccccc23)Oc2ccc(NS(=O)(=O)c3ccc(Cl)cc3)cc2C1=O
2.0[16.7 µM]	1.8	Cc1noc(C)c1NC(=O)N[C@H]1CC[C@H](CCNC(=O)C2CCC2)O[C@H]1CO

High-throughput results as filed in PubChem BioAssay.
